PINK1 expr mod = PINK1 expression modulation; PINK1 immunofluorescence, high-content cytometry, 24 h; Potency, µM (doses to about 76.6 µM), inactives show top-dose activation (PINK1 increase), most hits filed as activators; 410,000 compounds, 0.2% hits; AID 624263; active = well fitted activation curve with a large enough effect; inconclusive = small, poorly fitted or top-dose-only effect; inactive = flat fitted curve, though single readings scatter; cell line not stated here;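 further: potency means the concentration at half of the fitted maximal effect; % of control where 0% means no effect; nearly all actives have a fitted effect of over 65% in size; a mitochondrial uncoupler was the plate control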
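PINK1 protein level read as immunofluorescence by microplate cytometer in a fixed, stained stable cell line after 24 h exposure to five compound concentrations, with CCCP as control.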
Six1-Eya2 inh = Six1/Eya2 interaction inhibition | Q15475+O00167 | 360,000 compounds, 0.56% hits | activity change, % (test concentration not listed) | AlphaScreen GST-Six1/His-Eya2 binding, biochemical; active compounds read low; control for the full effect not named in the record; in the data active = activity change below about -65%; inconclusive = about -30% to -65%; inactive = above about -30%; further: on the % scale 0 is the no-effect control and ±100 the full control effect
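Six1/Eya2 binding was read as AlphaScreen signal after compounds were pinned into GST-Six1 plus His-tagged Eya2 (5X stock 250/500 nM) in pH 8.0 Tris/NaCl/TCEP buffer, beads added, then incubated 1 h, 37 C, dark.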
CtBP-E1A inh = inhibitors of CtBP/E1A interaction; 340,000 compounds, 0.49% hits; activity change, % (test concentration not listed); AlphaScreen GST-E1A/His-CtBP binding, 1536-well; active compounds read low; control for the full effect not named in the record; in the data active means activity change below about -65%; inconclusive means about -30% to -65%; inactive means above about -30%; further: on the % scale 0 is the no-effect control and ±100 the full control effect
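In 5 uL wells, 23 nL compound meets equimolar GST-E1A and His-CtBP (5X stock 125 nM each) for 2 h, 37 °C. Beads (5X, 50 ug/mL) then 1 h, 37 °C, dark.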
D2 ag = human D2 receptor agonism in beta-arrestin assay; 360,000 compounds, 0.084% hits; DiscoveRx PathHunter D2 beta-arrestin, luminescence, 90 min; 100% = 57 uM dopamine signal; AID 624465; activation, % (concentration not given with the values); P14416; in the data active = activation above about 40%; inconclusive = about 15% to 40%; inactive = below about 15%; further: the text of the record calls up to 30% inactive
Target sequence (P14416 whole entry, looked up): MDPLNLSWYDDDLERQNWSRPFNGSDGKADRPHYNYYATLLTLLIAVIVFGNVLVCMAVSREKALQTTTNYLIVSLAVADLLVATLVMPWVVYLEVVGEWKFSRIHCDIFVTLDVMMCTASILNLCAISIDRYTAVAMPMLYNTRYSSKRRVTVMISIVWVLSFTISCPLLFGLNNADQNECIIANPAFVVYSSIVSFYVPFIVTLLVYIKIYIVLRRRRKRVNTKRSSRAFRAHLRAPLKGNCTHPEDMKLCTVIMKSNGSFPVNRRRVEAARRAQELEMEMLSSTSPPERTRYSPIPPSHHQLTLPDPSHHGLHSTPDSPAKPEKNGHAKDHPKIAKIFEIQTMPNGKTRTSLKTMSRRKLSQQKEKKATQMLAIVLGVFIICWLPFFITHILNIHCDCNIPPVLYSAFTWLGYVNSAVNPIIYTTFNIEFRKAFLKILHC
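DiscoveRx PathHunter D2 beta-arrestin cells (2,100/well) attached overnight, then compound-stimulated 90 min at 37 C in HBSS/10 mM HEPES/0.1% Tween-20 buffer; beta-galactosidase complementation read by luminescence after 1 h at ambient temperature. Dopamine 57 uM final (EC100) as control.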
D2 potentiator = potentiates the human D2 dopamine receptor allosterically | P14416 | DiscoveRx D2 beta-arrestin cells, luminescence, 90 min; 100% = 57 uM dopamine signal | potentiation, % (concentration not given with the values) | 360,000 compounds, 0.23% hits | AID 624464; active = potentiation of 50% or more; inconclusive = 30% to 50%; inactive = 30% or less;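 further: tested on top of an EC20 dose of dopamine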
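PathHunter beta-arrestin assay in DiscoveRx D2 cells. Compounds were added with an EC20 of dopamine (50 nM final) for 90 min at 37 deg C. Luminescence was read 1 h after detection reagent, with 57 uM dopamine as the EC100 control.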
TRPV1 PAM = enhances activation of the human vanilloid receptor TRPV1; Q8NER1; 320,000 compounds, 0.02% hits; TRPV1-expressing cells, Fluo-8 calcium influx, capsaicin EC20 potentiation; host cell line not named in the record; control for the full effect not named in the record; AID 540277; potentiation, % at 8.33 µM; active means potentiation above 80%; inconclusive means 30% to 80%; inactive means below 30%; further: 0% is about no effect
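TRPV1-expressing cells were cultured overnight at 35.5C and loaded with Fluo-8 calcium dye for 40 to 90 min at room temperature. After a 10 s baseline, compound was added and calcium influx was read kinetically for 3 min (ex 480/em 520 nm).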
Sfp PPTase inh = Sfp phosphopantetheinyl transferase inhibition | AID 1490 | Potency, µM, without a hit: max response, negative = inhibition, actives largely listed as inhibitors | Q9F4F7 | 310,000 compounds, 3.5% hits | Biochemical Sfp PPTase activity, qHTS; active means well fitted inhibition curve with a large enough effect; inconclusive means small, poorly fitted or top-dose-only effect, or another doubt; inactive means no such curve, though single readings can be large or run the other way;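 further: the enzyme is Sfp with the accession as filed and its product quenches rhodamine fluorescence; potency means the concentration at half of the fitted maximal effect; 0% = enzyme reaction without inhibitor and -100% = no enzyme wells; top concentration of the series not given in the record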
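Sfp 15 nM + cpd, 15 min RT; start w/ rhodamine-CoA 5 uM, BHQ-2-YbbR 12.5 uM (final); 50 mM Hepes pH 7.6, 10 mM MgCl2, 0.01% NP-40, 0.01% BSA; read 525/598 nm at 0 and 30 min.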
* marks the source's active call; other numbers are inactive results; ? = inconclusive; . = no result given; [ ] = dose if it differs, or a comment. Hits appear at their usual frequency; 3.7% or so of the library scored in one or more.

Each structure is followed by: PINK1 expr mod | Six1-Eya2 inh | CtBP-E1A inh | D2 ag | D2 potentiator | TRPV1 PAM | Sfp PPTase inh
CCC(=O)NNc1nc2c(C)cccc2s1
  -1.4% | 2 | -3 | -19 | -5 | 22 | 50µM*
C/C(=N\NC(=O)c1cccs1)c1ccc2c(c1)OCO2
  1.9% | 11 | 8 | -1.8 | -2 | 2 | 1%
COCC(C)n1c(SCc2cc(C(=O)OC)c(C)o2)nc2ccccc2c1=O (stereo not given)
  4.4% | -1 | -5 | -1.6 | 5 | -1 | -15%
CCN1CCN(C(=O)CN2C(=O)COc3ccc(S(=O)(=O)N4CCOCC4)cc32)CC1
  -1.5% | -4 | -17 | -3.7 | -4 | 6 | 15%
COC(=O)c1ccc(CSc2nnc(-c3ccncc3)o2)o1
  -0.9% | 1 | -13 | -3.6 | -8 | -2 | -1%
[O-][N+](=Cc1c(Cl)cccc1Cl)CC1(O)CCCCC1
  -0.9% | 1 | -1 | -5.9 | -2 | . | .
COc1ccc(-c2nc(C)c(C(C)=O)n2O)cc1[N+](=O)[O-]
  0.5% | 0 | 10 | 0.6 | 1 | 4 | -4%
FC(F)(F)C1=CC(c2ccc(Cl)cc2)=NCCN1
  14% | -13 | 0 | 0.0 | -34 | -5 | 4%
O=C(Nc1ccc2c(c1)OCO2)C1CC(=O)N(c2cccc(Cl)c2)C1 (stereo not given)
  -0.4% | -2 | 0 | -3.6 | -2 | -6 | 0%
CC(=O)N1CCN(CC(O)COc2ccc(OCc3ccccc3)cc2)CC1 (stereo not given)
  . | -9 | -8 | 1.2 | 11 | -23 | 1%
Cc1c(NC(=O)CSc2nc(-c3ccco3)cc(C(F)(F)F)n2)c(=O)n(-c2ccccc2)n1C
  0.6% | 0 | -1 | -4.3 | -29 | -11 | 4%
COCCCn1c2nc3ccccc3nc2c2c(=O)n(Cc3ccc(Cl)cc3)cnc21
  5.4% | 3 | 6 | -2.0 | -2 | ? | ?
Nc1ccc2nc(N3CCOCC3)sc2c1
  -1.3% | -2 | . | 1.8 | -19 | 3 | 15%
OC(c1ccccc1)(c1nc(/C=C/c2ccccc2)cs1)C(F)(F)F (stereo not given)
  ? | 4 | 7 | 10 | -3 | . | .
CC(=O)c1ccc(-c2ccc(C(=O)NCC3CCCO3)o2)cc1 (stereo not given)
  0.1% | -4 | -29 | 0.3 | -29 | -20 | .
O=C1Nc2cc(Br)ccc2C1(O)c1ccccc1O (stereo not given)
  1.4% | -3 | -5 | -2.8 | -1 | 13 | 5%
CCn1cnc2scc(-c3ccc(OC)cc3)c2c1=O
  -1.0% | -2 | 0 | 2.0 | -1 | 7 | 4%
CN(C(=O)c1cccc(NC(=O)Cc2cccc(NC(=O)C3CCN(C(=O)C4CC4)CC3)c2)c1)C1CC1
  2.2% | 1 | 2 | 0.0 | 3 | . | .
NS(=O)(=O)c1ccc(NC(=O)Nc2cccc3ccccc23)cc1
  2.8% | 2 | -1 | 7.3 | -5 | -14 | 5%
NC(=NCCc1c[nH]c2ccccc12)NS(=O)(=O)c1ccc2ccccc2c1
  0.8% | -3 | -5 | 0.9 | -12 | 3 | -17%

Looked up by structure from above:
Each structure is followed by: PINK1 expr mod | Six1-Eya2 inh | CtBP-E1A inh | D2 ag | D2 potentiator | TRPV1 PAM | Sfp PPTase inh
NC(=NCCc1c[nH]c2ccccc12)NS(=O)(=O)c1ccc2ccccc2c1
  0.8% | -3 | -5 | 0.9 | -12 | 3 | -17%
FC(F)(F)C1=CC(c2ccc(Cl)cc2)=NCCN1
  14% | -13 | 0 | 0.0 | -34 | -5 | 4%
Cc1c(NC(=O)CSc2nc(-c3ccco3)cc(C(F)(F)F)n2)c(=O)n(-c2ccccc2)n1C
  0.6% | 0 | -1 | -4.3 | -29 | -11 | 4%
CCn1cnc2scc(-c3ccc(OC)cc3)c2c1=O
  -1.0% | -2 | 0 | 2.0 | -1 | 7 | 4%
CCN1CCN(C(=O)CN2C(=O)COc3ccc(S(=O)(=O)N4CCOCC4)cc32)CC1
  -1.5% | -4 | -17 | -3.7 | -4 | 6 | 15%

Going on with the list.
Each structure is followed by: PINK1 expr mod | Six1-Eya2 inh | CtBP-E1A inh | D2 ag | D2 potentiator | TRPV1 PAM | Sfp PPTase inh
O=[N+]([O-])c1ccccc1-c1cc(-c2cc(Cl)ccc2O)n[nH]1
  ? | -6 | -11 | 6.2 | 4 | 3 | 4%
COc1ccc(C2=NOC(Cn3nc(-c4ccccc4)cc3C(=O)NCc3cccs3)C2)cc1 (stereo not given)
  -1.2% | 6 | -2 | 5.0 | -7 | . | .
O=C(Cn1c(=O)n(CC2CCCO2)c(=O)c2ccccc21)c1ccccc1 (stereo not given)
  0.5% | -3 | 0 | -2.8 | -22 | -39 | 5%
Cn1nc(C(=O)Nc2ccc(S(=O)(=O)N3CCOCC3)cc2)c2ccccc2c1=O
  2.2% | 1 | 8 | 1.6 | -7 | 0 | 6%
C/C(=N\NC(=S)NC(C)C)c1ccccc1OC(F)F
  3.8% | -2 | 1 | -0.7 | -8 | -7 | 16%
Cc1ccccc1-c1nc(C#N)c(NCc2ccco2)o1
  3.3% | 1 | -5 | 12 | 0 | 6 | -8%
O=C(NNC(=S)Nc1ccc(F)cc1F)c1ccco1
  1.1% | -1 | -1 | -3.2 | -7 | 10 | 29%
Cc1ccc(-c2nn(-c3ccccc3)cc2CN(Cc2ccccc2)C(=O)CCC(=O)O)o1
  -0.5%[38.3 µM] | -10 | -7 | -2.1 | -5 | 3 | 8.9µM*
O=C(O)COc1c(Cl)cc(/C=C2\NC(=O)NC2=O)cc1Br
  0.9% | 8 | -1 | -3.7 | -12 | -6 | 15%
Cc1cccc(NC(=O)c2ccccc2NC(=O)C(C)(C)C)n1
  -1.9% | -1 | -1 | -1.4 | -2 | -18 | -9%
CN(C(=O)Nc1ccc(S(=O)(=O)N(C)C)cc1)C1CCCCC1
  9.0% | 3 | 6 | -2.8 | -7 | 9 | -8%
O=C(Cc1ccccc1)Nc1ccccc1N1CCOCC1
  -1.3% | -1 | 5 | 1.0 | -2 | -2 | 4%
CCCC(=O)NC(c1ccc(C)cc1)c1ccc2cccnc2c1O (stereo not given)
  -0.2% | -66* | -90* | 2.1 | -4 | 6 | 24%
COC(=O)c1sccc1NC(=S)N1CCC(C(N)=O)CC1
  0.6% | -2 | . | -3.6 | 1 | 1 | 79µM*
CCN(CC)S(=O)(=O)c1ccc(NC(=O)C(OC)c2ccccc2)cc1 (stereo not given)
  4.8% | 2 | 4 | -2.9 | -4 | 5 | 4%
Cc1ccc(C(=O)OCC(=O)NCc2ccco2)cc1S(=O)(=O)N1CCOCC1
  -1.5% | 3 | 1 | 3.2 | -66 | 4 | .
CCN1C(=O)/C(=C2/SC(C)=C(C)N2CC)SC1=S
  -4.0% | -2 | 2 | -1.7 | 6 | -5 | 0%
O=C(NCc1cccnc1)c1cc(-c2ccc(Cl)cc2)oc1C(F)(F)F
  1.5% | 3 | -2 | -4.2 | -8 | -11 | 3%
O=C(CCNC(=O)c1ccccc1Cl)Nc1ccc(S(=O)(=O)Nc2ncccn2)cc1
  2.5% | -11 | -8 | -0.5 | -3 | 2 | 3%
Cc1cc(=O)c(C(=O)O)nn1-c1ccccc1F
  0.9% | 0 | -1 | -3.0 | -9 | 12 | 11%

Following part:
Each structure is followed by: PINK1 expr mod | Six1-Eya2 inh | CtBP-E1A inh | D2 ag | D2 potentiator | TRPV1 PAM | Sfp PPTase inh
O=C(/C=C/c1ccccc1)NC(=S)Nc1ccc(N2CCOCC2)cc1
  14%[38.3 µM] | -1 | -3 | 3.8 | 25 | -3 | -11%
CCC(=O)N1CCCC(C(=O)c2ccc(-c3ccccc3)cc2)C1 (stereo not given)
  1.9% | 4 | -12 | 1.5 | -9 | -6 | -13%
Cc1nc(C(=O)O)nn1-c1cc(Cl)ccc1Cl
  3.2% | -2 | 3 | -0.7 | 5 | -4 | 18%
Cc1ccc(S(=O)(=O)N(CC(=O)NCc2ccco2)Cc2ccccc2F)cc1
  -1.7% | -2 | 1 | -2.4 | -6 | -19 | 17%
COc1ccc(N(C(=O)c2snc(C(N)=O)c2N)C(C(=O)NC2CCCC2)c2ccc(C)o2)c(OC)c1 (stereo not given)
  -1.6% | 1 | -2 | -6.3 | -7 | 14 | -2%
NS(=O)(=O)c1ccc(CCNC(=O)NC2(C(F)(F)F)Oc3ccccc3O2)cc1
  -4.8% | 3 | -7 | 4.8 | 3 | 10 | 7%
Cc1ccc(CN2CCNC(=O)C2CC(=O)NC2CCCCCC2)cc1 (stereo not given)
  -1.1% | 10 | 0 | -4.4 | -2 | -9 | 8%
CC(=O)Oc1cc2c(c3ccccc13)CCC2=O
  1.1% | -6 | -1 | -0.1 | -11 | . | .
S=C(Nc1ccccc1Oc1ccccc1)Nc1cccc(Cl)c1Cl
  13% | -6 | -2 | -2.1 | -12 | -21 | -27%
O=C(c1ccc(Cl)cc1Cl)N1CCC(C(=O)N2CCOCC2)CC1
  2.6% | 4 | -2 | 3.2 | -1 | -17 | 13%
O=[N+]([O-])c1ccc(Cc2ccncc2)cc1
  -0.3% | 0 | -4 | 1.8 | -4 | 5 | 11%
Cc1ccc(NC(=O)Nc2ccc3c(c2)nc(C)n3C)cc1
  3.6% | -9 | -18 | -4.8 | -4 | -12 | 9%
CN(C)c1nc(N)nc(CSc2nnnn2-c2ccc(Cl)cc2)n1
  7.2% | -5 | -7 | -4.4 | -2 | . | .
Cc1ccc(-c2csc(N3CCN(c4cc5c(cc4Cl)nc(-c4ccncc4)n5CCOCCO)CC3)n2)cc1
  3.9% | -12 | -23 | -3.4 | -19 | -6 | -13%
CCOC(=O)Cc1csc(NC(=O)Nc2ccccc2)n1
  2.3% | -2 | -7 | 1.0 | 14 | 28 | 0%
COc1ccc(S(=O)(=O)N(CCCN2CCCC2=O)Cc2cc3c(C)ccc(C)c3[nH]c2=O)cc1
  -3.7% | 9 | -2 | -3.7 | -13 | -9 | 7%

Profiles, looked up by structure.
S=C(Nc1ccccc1Oc1ccccc1)Nc1cccc(Cl)c1Cl is entered as PINK1 expr mod = 13%; Six1-Eya2 inh = -6; CtBP-E1A inh = -2; D2 ag = -2.1; D2 potentiator = -12; TRPV1 PAM = -21; Sfp PPTase inh = -27%
Cc1ccc(S(=O)(=O)N(CC(=O)NCc2ccco2)Cc2ccccc2F)cc1 is entered as PINK1 expr mod = -1.7%; Six1-Eya2 inh = -2; CtBP-E1A inh = 1; D2 ag = -2.4; D2 potentiator = -6; TRPV1 PAM = -19; Sfp PPTase inh = 17%
